# Compound activity from PubChem.
# NCOA2 inhibitor – inhibits human steroid receptor coactivator 2. Q15596. HEK293 GAL4-SRC2 luciferase reporter, luminescence. inhibition, % at 9 µM. 0.17% of 370,000 active. AID 651957;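 active = inhibition above the mean inhibition of all tested compounds plus 3 SD, set per campaign, cut at about 52% in these data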;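 note: 0% = DMSO treated cells and 100% = cells given Gossypol at 36 µM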
# TRAIL sens C8 – sensitizes caspase-8 expressing cells to TRAIL | NB7+C8 cells + TRAIL, ATPlite viability luminescence | inhibition (viability loss, TRAIL sensitization), % at 10 µM | 1% of 360,000 active;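 active = compounds causing at least 50% loss of cell viability in the single-dose screen, relative to plate controls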
# SRC3 inh – inhibits human SRC3 coactivator. HEK293 GAL4-SRC3 luciferase reporter, luminescence. AID 588352. 0.17% of 360,000 active. Q9Y6Q9. inhibition, % at 3.6 µM;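 active = inhibition above a per-campaign cutoff, the mean of all compounds plus 3 SD, cut at about 60% in these data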;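 note: 0% = DMSO-treated cells and 100% = gossypol-treated cells at 36 µM; higher means less SRC3-driven luciferase light from the GAL4 reporter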
# Target sequence (Q9Y6Q9 whole entry, looked up, the tested form may be a part): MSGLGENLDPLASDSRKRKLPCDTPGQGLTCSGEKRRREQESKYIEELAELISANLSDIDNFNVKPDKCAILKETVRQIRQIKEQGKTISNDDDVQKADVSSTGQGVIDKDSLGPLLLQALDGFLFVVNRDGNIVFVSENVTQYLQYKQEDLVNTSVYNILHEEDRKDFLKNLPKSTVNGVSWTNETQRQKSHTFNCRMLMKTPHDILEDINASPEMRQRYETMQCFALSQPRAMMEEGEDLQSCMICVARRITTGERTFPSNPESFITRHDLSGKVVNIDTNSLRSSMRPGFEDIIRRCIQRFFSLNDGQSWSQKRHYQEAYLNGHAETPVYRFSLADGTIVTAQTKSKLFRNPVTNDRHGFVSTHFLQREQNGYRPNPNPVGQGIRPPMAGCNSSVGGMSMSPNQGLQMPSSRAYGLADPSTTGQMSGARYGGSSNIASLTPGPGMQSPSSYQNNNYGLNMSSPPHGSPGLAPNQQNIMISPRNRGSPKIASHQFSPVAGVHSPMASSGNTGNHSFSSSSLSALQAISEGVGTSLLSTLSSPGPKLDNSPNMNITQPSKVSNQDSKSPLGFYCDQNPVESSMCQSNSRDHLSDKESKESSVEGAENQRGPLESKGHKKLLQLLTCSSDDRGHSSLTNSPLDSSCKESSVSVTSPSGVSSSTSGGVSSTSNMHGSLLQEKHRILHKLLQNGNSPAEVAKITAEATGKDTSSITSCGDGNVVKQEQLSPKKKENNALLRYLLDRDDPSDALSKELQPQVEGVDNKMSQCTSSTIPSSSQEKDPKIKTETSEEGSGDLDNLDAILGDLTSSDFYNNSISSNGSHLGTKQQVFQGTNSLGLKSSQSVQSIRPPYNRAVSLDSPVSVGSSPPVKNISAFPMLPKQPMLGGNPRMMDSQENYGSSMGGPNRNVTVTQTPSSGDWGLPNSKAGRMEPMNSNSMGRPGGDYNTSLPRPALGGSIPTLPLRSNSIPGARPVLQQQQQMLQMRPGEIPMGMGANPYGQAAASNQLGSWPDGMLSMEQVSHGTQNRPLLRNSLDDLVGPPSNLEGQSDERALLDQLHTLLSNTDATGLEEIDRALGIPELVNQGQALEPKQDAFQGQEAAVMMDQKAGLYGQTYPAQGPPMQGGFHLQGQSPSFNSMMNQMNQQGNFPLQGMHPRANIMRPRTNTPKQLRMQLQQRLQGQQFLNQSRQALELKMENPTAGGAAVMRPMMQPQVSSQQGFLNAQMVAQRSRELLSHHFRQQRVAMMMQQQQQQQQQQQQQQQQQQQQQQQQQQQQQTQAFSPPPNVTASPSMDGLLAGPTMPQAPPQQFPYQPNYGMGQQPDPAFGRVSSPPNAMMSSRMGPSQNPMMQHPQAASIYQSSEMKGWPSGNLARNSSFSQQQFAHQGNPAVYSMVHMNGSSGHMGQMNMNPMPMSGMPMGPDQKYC
# NR5A2 inv ag – suppresses constitutive activity of human LRH-1. O00482. HEK293T StAR-luciferase reporter, LRH-1 transfected, 24 h. inhibition, % at 3.6 µM. 0.13% of 360,000 active;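 active = inhibition above the mean inhibition of all tested compounds plus 3 SD, cut at about 73% in these data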;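 note: 0% = DMSO wells and 100% = reporter-only cells lacking LRH-1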
# NOD2-RIPK2 inh – inhibitors of human NOD2-RIPK2 interaction; O43353; CHO BLA complementation NOD2-RIPK2, CCF4 ratio; inhibition, % at 4.98 µM; 0.38% of 360,000 active; AID 624267; in the data active = inhibition above about 21%;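 note: 0% = vehicle only and 100% = reference blocker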
# TLR9-MyD88 block – inhibitors of human TLR9-MyD88 binding; 0.21% of 340,000 active; inhibition, % at 4.98 µM; Q9NR96+Q99836; CHO BLA complementation TLR9-MyD88, CCF4 FRET ratio; AID 504734;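 active = inhibition above the mean over all tested compounds plus 3 SD, cut at about 21% in these data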;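 note: 0% = DMSO only wells and 100% = clavulanate BLA inhibitor control wells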
# The depositor's hits bear a star.
item	Structure	NCOA2 inhibitor	TRAIL sens C8	SRC3 inh
1	CC(=O)N1CCN(C(c2ccccc2)c2ccccc2)CC1	9	11	-5
2	CCN1CCS/C1=C\C=C\C1=[N+](CC)CCS1	-12	40	34
3	N#Cc1ccc(OCC(O)CN2CCC(C(O)(c3ccccc3)c3ccccc3)CC2)cc1 (stereo not drawn)	10	12	-5
4	COc1cc([C@@H]2c3cc4c(cc3[C@@H](O[C@@H]3O[C@@H]5CO[C@@H](C)O[C@H]5[C@H](O)[C@H]3O)[C@H]3COC(=O)[C@H]23)OCO4)cc(OC)c1O	-24	-6	65*
5	COc1ccc(-c2nc(-c3ccccc3)no2)c(OC)c1	43	83*	26
6	O=C(O)[C@@H]1CCCC[C@@H]1C(=O)N1CCc2ccccc2C1CN1C(=O)c2ccccc2C1=O (stereo partly drawn)	-8	12	7
7	Oc1cc2c(c(Cl)c1O)CCNCC2c1ccccc1 (stereo not drawn)	-36	9	-23
8	CC#C[C@]1(O)CC[C@H]2[C@@H]3CCC4=CC(=O)CCC4=C3[C@@H](c3ccc(N(C)C)cc3)C[C@@]21C	-10	12	-6
9	O=S(=O)(c1ccc(F)cc1)n1cnc2ccccc21	-7	-6	9
10	CC(=O)S[C@@H]1CC2=CC(=O)CC[C@]2(C)[C@H]2CC[C@@]3(C)[C@@H](CC[C@@]34CCC(=O)O4)[C@H]12	10	-8	23
11	CCCN(CCC)C1=CC(=[N+]2CCCC2)CC(C)(C)C1	39	38	55

item	NR5A2 inv ag	NOD2-RIPK2 inh	TLR9-MyD88 block
1	-13	-5	-7
2	57	-11	-25
3	-13	9	-4
4	61	-4	16
5	4	-11	0
6	24	-1	-5
7	3	-12	-2
8	-7	-12	-2
9	5	-2	2
10	-1	-16	11
11	72	-9	-9

# Three structures already listed, ordered by length of the SMILES, rising.
item	Structure	NCOA2 inhibitor	TRAIL sens C8	SRC3 inh
9	O=S(=O)(c1ccc(F)cc1)n1cnc2ccccc21	-7	-6	9
5	COc1ccc(-c2nc(-c3ccccc3)no2)c(OC)c1	43	83*	26
11	CCCN(CCC)C1=CC(=[N+]2CCCC2)CC(C)(C)C1	39	38	55

item	NR5A2 inv ag	NOD2-RIPK2 inh	TLR9-MyD88 block
9	5	-2	2
5	4	-11	0
11	72	-9	-9

# Whole records as entered above. Values in the order: NCOA2 inhibitor	TRAIL sens C8	SRC3 inh	NR5A2 inv ag	NOD2-RIPK2 inh	TLR9-MyD88 block
# Record of CC(=O)S[C@@H]1CC2=CC(=O)CC[C@]2(C)[C@H]2CC[C@@]3(C)[C@@H](CC[C@@]34CCC(=O)O4)[C@H]12 = 10	-8	23	-1	-16	11
# Record of CC(=O)N1CCN(C(c2ccccc2)c2ccccc2)CC1 = 9	11	-5	-13	-5	-7
# Record of CCCN(CCC)C1=CC(=[N+]2CCCC2)CC(C)(C)C1 = 39	38	55	72	-9	-9

# Only part of the results is shown. The share of hits here may be higher or lower than overall.
